TsaE inh: qHTS Assay for Inhibitors of YjeE | tRNA threonylcarbamoyladenosine biosynthesis protein TsaE (Escherichia coli (strain … | purified YjeE, fluorescence polarisation of a bound ADP probe | Potency, µM | hit rate 0.05% among 71,000 | AID 605, 2007; active = well fitted falling curve; inconclusive = weaker or top-dose-only fall, or a rising curve; inactive = flat or poorly fitted curve;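 also: top concentration of the series not given in the record; excess ADP was the control for the full effect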
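Purified YjeE (10 uM) with BODIPY Texas Red-labeled ADP probe (2 uM); compounds pin-transferred, 15 min at room temperature. Binding inhibition read as decreased fluorescence polarization; ADP titration as control.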
Bst PK mod: Pyruvate Kinase. partly purified Bacillus stearothermophilus pyruvate kinase, luminescence ATP production; ribose 5-phosphate activator present at AC10. Potency, µM. hit rate 1.2% among 51,000. AID 361, 2006; in the data active means potency below about 11 µM; inconclusive means mostly about 12 µM to 25 µM; inactive means weaker than that;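 the screen sought inhibitors and activators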;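 also: potency is read from the fitted curve at half-maximal effect; scaled between full activation by ribose 5 phosphate and full inhibition by luteolin; about four in five hits inhibit and the cells do not say which; series up to 57 µM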
Active calls of the source: *. An excerpt (hit frequency here may not be typical).

Cc1ccc(-n2c3c(cc(C(=O)O)c2=O)C(=O)CC(C)(C)C3)cc1 was read as TsaE inh inactive and Bst PK mod >57.
For N#CCSc1nnc2c(Cl)cc(Cl)cn12 the results were TsaE inh inactive and Bst PK mod >57.
For COc1ccc(NC(=O)C2C3C=CC4(CN(Cc5cccnc5)C(=O)C24)O3)c(OC)c1 (stereo not drawn) the results were TsaE inh inactive and Bst PK mod >57.
`Cc1nc(SCC(=O)NCc2ccco2)c2oc3ccccc3c2n1` gave TsaE inh inactive.
Screening Cc1ccc(S(=O)(=O)c2cc3c(=O)n4ccccc4nc3n(CC3CCCO3)c2=N)cc1 (stereo not drawn) returned TsaE inh inactive and Bst PK mod >57.
`CSc1nc(N)nc(SCC(=O)C23CC4CC(CC(C4)C2)C3)c1C#N` gave Bst PK mod >26.
Screening Cc1c(N=Cc2ccc(Cl)o2)c(=O)n(-c2ccccc2)n1C returned TsaE inh inactive and Bst PK mod >57.
`Nc1nc(N)[n+]([O-])c(N)c1NCO` gave TsaE inh inactive.
For CC(C)(C)OC(=O)N1CCC[C@H]1c1nnc(SCc2ccccc2Cl)o1 the results were TsaE inh inactive and Bst PK mod >57.
`Cc1nn(Cc2ccccc2)c(Cl)c1C(=O)OCc1nnc(-c2ccccc2)o1` gave TsaE inh inactive and Bst PK mod >57.
Cc1ccc(C2C3=C(CC(C)(C)CC3=O)NC3=C2C(=O)CC(C)(C)C3)o1 was read as TsaE inh inactive and Bst PK mod >57.
Screening O=c1[nH]n(-c2ncnc3c2cnn3-c2ccccc2)c(=O)c2ccccc12 returned TsaE inh inconclusive.

Fetched by compound from above, two records:
For N#CCSc1nnc2c(Cl)cc(Cl)cn12 the results were TsaE inh inactive and Bst PK mod >57.
For COc1ccc(NC(=O)C2C3C=CC4(CN(Cc5cccnc5)C(=O)C24)O3)c(OC)c1 (stereo not drawn) the results were TsaE inh inactive and Bst PK mod >57.

Going on with the list:
O=S(=O)(c1ccc(Br)c2nsnc12)N1CCOCC1 was read as TsaE inh inactive and Bst PK mod >57.
O=C(NC1CCCCC1)n1c(=O)oc2ccccc21 was read as TsaE inh inactive and Bst PK mod >57.
`O=C(NCCCN1CCN(c2ccccc2F)CC1)Nc1ccc(F)cc1` gave TsaE inh inactive and Bst PK mod >57.
Screening COc1ccc(-c2csc(Cc3nnc4n3CCCCC4)n2)cc1OC returned TsaE inh inactive.
CCOC(=O)CC(=O)CSc1ccc2nnc(-c3ccccc3)n2n1 was read as TsaE inh inactive and Bst PK mod >57.
Screening O=c1oc(-c2cccnc2)nc2ccccc12 returned TsaE inh inactive.
For Cc1ccc(CNC(=O)CCS(=O)(=O)c2cc(Br)cc3c2N(C(=O)C2CC2)CC3)o1 the results were TsaE inh inactive and Bst PK mod >57.
`CCOc1ccccc1-n1c(SCC(=O)NC(C)(C)C)nnc1-c1ccoc1C` gave TsaE inh inactive and Bst PK mod >57.
Screening CCN(CCCNC(=O)C1CCN(S(=O)(=O)c2cnc[nH]2)CC1)c1cccc(C)c1 returned TsaE inh inactive and Bst PK mod >57.
`Cc1ccc(OCC(=O)N2CCN(C3=NS(=O)(=O)c4ccccc43)CC2)cc1` gave TsaE inh inactive and Bst PK mod >57.
For Cc1cc2cc(CN3C(=O)c4ccccc4C3=O)ccc2n1C the results were TsaE inh inactive and Bst PK mod >57.
For C=CCc1cc(OC)ccc1OCCON1C(=O)CCC1=O the results were TsaE inh inactive and Bst PK mod >57.
For CCN=C1SC(CC(=O)NC2CCCCC2)C(=O)N1CC (stereo not drawn) the results were TsaE inh inactive and Bst PK mod >57.
COc1ccc(F)cc1S(=O)(=O)N1CCC(C(N)=O)CC1 was read as TsaE inh inactive and Bst PK mod >57.
`COc1ccc(Nc2nc(Nc3ccc(OC)cc3)nc(-n3[nH]c(=O)c(C)c3C)n2)cc1` gave Bst PK mod >11.
`COC(=O)c1ccc(-c2nc3ccccc3o2)cc1` gave TsaE inh inactive.
`Cc1cc(C)c(-c2cc(C(F)(F)F)no2)c(=O)[nH]1` gave TsaE inh inactive and Bst PK mod >57.
Screening O=C(CN1C(=O)c2ccccc2S1(=O)=O)N1CCc2ccccc2C1 returned TsaE inh inactive and Bst PK mod inconclusive.
CCCc1cc(C(=O)N2CCN(c3ccccc3C)CC2)cs1 was read as TsaE inh inactive and Bst PK mod >57.
`CCOC(=O)Cc1csc(SCC(=O)c2c(N)n(CC(C)C)c(=O)n(C)c2=O)n1` gave TsaE inh inactive and Bst PK mod >57.
`CCOc1ccc(-c2nc(C#N)c(N3CCN(CC)CC3)o2)cc1` gave Bst PK mod inconclusive.
COc1ccc(CNC(=O)CN(C(=O)c2cc3sccc3n2C)C2CCCC2)cc1 was read as TsaE inh inactive and Bst PK mod >57.
O=C(CSc1nnc(NC(=O)c2ccco2)s1)NC1CCCCC1 was read as TsaE inh inactive and Bst PK mod >57.
Screening COc1ccc(OC)c(NC(=O)CSc2nnc(CNC(=O)c3ccco3)o2)c1 returned TsaE inh inactive and Bst PK mod >57.

Gathered by group: the compounds so far containing a Cl atom
For N#CCSc1nnc2c(Cl)cc(Cl)cn12 the results were TsaE inh inactive and Bst PK mod >57.
Screening Cc1c(N=Cc2ccc(Cl)o2)c(=O)n(-c2ccccc2)n1C returned TsaE inh inactive and Bst PK mod >57.
For CC(C)(C)OC(=O)N1CCC[C@H]1c1nnc(SCc2ccccc2Cl)o1 the results were TsaE inh inactive and Bst PK mod >57.
`Cc1nn(Cc2ccccc2)c(Cl)c1C(=O)OCc1nnc(-c2ccccc2)o1` gave TsaE inh inactive and Bst PK mod >57.

Next section.
Screening O=P(O)(CCCCP(=O)(O)CCc1ccccc1)CCc1ccccc1 returned TsaE inh inactive and Bst PK mod >57.
`COc1cc(C2C(C(=O)Nc3ccccc3OC)=C(C)Nc3ncnn32)ccc1O` (stereo not drawn) gave TsaE inh inactive.
Cc1ccsc1C1NC(=O)c2c(sc3c2CCN(C)C3)N1 (stereo not drawn) was read as TsaE inh inactive.
Screening Clc1ccc(C(c2nnnn2C2CCCC2)N2CCSCC2)cc1 (stereo not drawn) returned TsaE inh inactive and Bst PK mod >57.
c1ccc(OCc2nc3ccccc3[nH]2)cc1 was read as TsaE inh inactive.
Screening CCOC(=O)C1CCCN(C(=O)c2cn(CC)c(=O)c3cc(OC)c(OC)cc23)C1 (stereo not drawn) returned TsaE inh inactive and Bst PK mod >57.
`O=C(CN1C2CCC1CC(NC(=O)C1CC1)C2)NCc1ccccc1` (stereo not drawn) gave TsaE inh inactive and Bst PK mod >57.
For CCOc1ccc(-n2c(SCC(=O)Nc3ccc4c(c3)OCO4)nc3c(c2=O)SCC3)cc1 the results were TsaE inh inactive.
For COc1ccc(C(=O)N2CCC3(CC2)CCN(c2ccncc2)CC3)cc1 the results were TsaE inh inactive.
CC1(c2ccccc2)CC(c2ccccc2)=Nc2nonc2N1 (stereo not drawn) was read as TsaE inh inactive and Bst PK mod >57.
Screening CCn1c(CSc2nc3ccccc3n2C)nc2ccccc21 returned TsaE inh inactive.
`CCOC(=O)C(NC(=O)N1CCCCC1)(c1ccccc1)C(F)(F)F` (stereo not drawn) gave TsaE inh inactive and Bst PK mod >57.
`Cc1cc(C)nc(-n2nc(C)c3c(=O)[nH]c(C(F)(F)F)nc32)n1` gave TsaE inh inactive.
For COc1ccc(-c2nnn(CC(=O)N(C3CCCCC3)C(C)C(=O)NC3CCCC3)n2)cc1OC (stereo not drawn) the results were TsaE inh inactive and Bst PK mod >57.
`COc1ccc(OC)c(-n2c(C)nc3cc(C(=O)O)ccc32)c1` gave TsaE inh inactive and Bst PK mod >57.
For NC(=O)CSc1nnc(-c2ccc(O)cc2)n1Cc1ccco1 the results were TsaE inh inactive and Bst PK mod >57.
Screening CC/C(=C(/CC)c1ccc(O)cc1)c1ccc(O)cc1 returned TsaE inh inactive.
For COc1ccc(NC(=O)C=C(C)C)cc1Cl the results were TsaE inh inactive.
`CCC(=O)N1CCc2cc(Br)cc(S(=O)(=O)NCCN3CCOCC3)c21` gave TsaE inh inactive and Bst PK mod >57.
Screening COCCn1c(C)cc(C(=O)CSc2nc(C)cc(C)c2C#N)c1C returned TsaE inh inactive and Bst PK mod >57.
COC(=O)[C@H](N)Cc1ccc(Cl)cc1 was read as TsaE inh inactive.
Screening CC(C)=CC(=O)Nc1nnc(-c2cccnc2)s1 returned TsaE inh inactive and Bst PK mod >57.
Cc1ccc(-n2c(C)cc(C3N=C(N)Nc4nc5ccccc5n43)c2C)c(C)c1 (stereo not drawn) was read as TsaE inh inactive and Bst PK mod >57.
For CCOC(=O)CSc1nc(NCc2ccco2)c2ccccc2n1 the results were TsaE inh inactive and Bst PK mod >57.
O=c1c(-c2cc(F)cc(F)c2)nc2cnc(Oc3ccccc3)nc2n1C1CC1 was read as TsaE inh inactive.
Cc1ccc(C2C3=C(CC(C)(C)CC3=O)Nc3[nH]c(=S)[nH]c(=O)c32)cc1 (stereo not drawn) was read as TsaE inh inactive and Bst PK mod >57.
COc1ccc(C2SCCN2S(=O)(=O)c2ccc(F)cc2)cc1OC (stereo not drawn) was read as TsaE inh inactive and Bst PK mod >57.
Screening Oc1ccc2ccccc2c1/C=N/n1cnnc1 returned Bst PK mod >26.
C=CCNc1ncnc2c1ncn2C1OC(CO)C(O)C1O (stereo not drawn) was read as TsaE inh inactive and Bst PK mod >57.
c1ccc(-n2ncc3c2ncn2nc(CSc4nc5ccccc5s4)nc32)cc1 was read as TsaE inh inactive and Bst PK mod >57.
Screening CCN(CC)CCCCn1c(-c2ccccc2)nc2c(NCc3ccccc3)nc(C)nc21 returned TsaE inh inactive.
Cc1cccnc1NC(=O)c1c(O)c2ccccc2n(C)c1=O was read as TsaE inh inactive.
`COc1cc(OC)c(C2CC(=O)N3CN(c4ccc(C)cc4)CSC3=C2C#N)cc1OC` (stereo not drawn) gave TsaE inh inactive and Bst PK mod >57.
CC(C)(C)SCCNS(=O)(=O)c1ccc(F)cc1 was read as TsaE inh inactive.
`O=C1CC(C(=O)Nc2ccc(O)c(C(=O)O)c2)C(c2ccccc2)O1` (stereo not drawn) gave TsaE inh inactive and Bst PK mod >57.
CCN(c1ccccc1)S(=O)(=O)c1ccc(F)cc1 was read as TsaE inh inactive and Bst PK mod >57.
For COC(=O)c1nc(-c2ccccc2)oc1N(C)C the results were TsaE inh inactive and Bst PK mod >57.
CCOC(=O)Cn1nnnc1CN(Cc1ccccc1)Cc1cc2cc(CC)ccc2[nH]c1=O was read as TsaE inh inactive and Bst PK mod >57.
Screening COc1ccc(C(=O)Nc2nc3nc(-c4ccccc4)cc(=O)n3[nH]2)cc1 returned TsaE inh inactive and Bst PK mod >57.
`Clc1ccc(Cc2nnc(-c3cccs3)o2)cc1` gave TsaE inh inactive.
`CC(=O)SCCC(=O)Nc1ccccc1` gave TsaE inh inactive and Bst PK mod >57.
Screening CC(C)OCCCNC(=O)CNC(=O)c1cccs1 returned TsaE inh inactive and Bst PK mod >57.
For COC(=O)c1ccccc1NC(=O)CNc1cc(Cl)ccc1N1CCOCC1 the results were TsaE inh inactive and Bst PK mod >57.
`COc1ccc(/C=N\NC(=O)O)cc1` gave TsaE inh inactive.
O=C(NCc1ccc(N2CCCC2=O)cc1)Nc1ccccc1 was read as TsaE inh inactive and Bst PK mod >57.
CN(C)c1ccc(-c2cc(Nc3ccc(F)cc3)ncn2)cc1 was read as TsaE inh inactive.
Oc1oc(-c2ccccc2)nc1C=NCc1ccncc1 was read as Bst PK mod >26.
`O=C(Nc1cccc(F)c1)N1CC[C@@]2(CCCN(C(=O)c3ccco3)C2)C1` gave TsaE inh inactive.
CCOC(=O)c1[nH]c(COC(=O)c2ccccc2NC(=O)c2ccco2)c(C(=O)OCC)c1C was read as TsaE inh inactive and Bst PK mod >57.
`CCCCCC(=O)Nc1ccc(N2CCN(C(=O)CCC)CC2)cc1` gave TsaE inh inactive and Bst PK mod >57.
`COc1ccccc1-c1nc(N(C)C)c2ccccc2n1` gave TsaE inh inactive.
`Cc1ccc2[nH]c(=O)c(CN(Cc3ccccc3Cl)C(=O)N3CCOCC3)cc2c1` gave TsaE inh inactive and Bst PK mod >57.
Cc1noc(C)c1CN1C(=O)NC2(CCc3ccccc3C2)C1=O (stereo not drawn) was read as TsaE inh inactive and Bst PK mod >57.
Cc1cccc(CNc2ncncc2-c2cccc(NS(C)(=O)=O)c2)c1 was read as TsaE inh inactive.
For CCCn1c(-c2ccc(F)cc2)nc2c(N3CCN(C)CC3)nc(C)nc21 the results were TsaE inh inactive.
For CC1CCCC(C)N1C(=O)CN1C(=O)C(C)(C)Oc2ccc(C(=O)NC3CCCC3)cc21 (stereo not drawn) the results were TsaE inh inactive and Bst PK mod >57.
Screening COc1ccc2[nH]cc(CCNc3nc(-c4ccccc4CN(C)C)nc4ccccc34)c2c1 returned TsaE inh inactive.
`c1ccc(-n2ncc3c(N4CCN(c5ccccn5)CC4)nc(N4CCCCC4)nc32)cc1` gave TsaE inh inactive and Bst PK mod >57.
O=C(O)CCCNC1=NCCC1 was read as TsaE inh inactive.
O=C(c1ccc(N2CCOCC2)nc1)N1CCCCC1 was read as TsaE inh inactive and Bst PK mod >57.
`CN(CC(=O)NCc1ccc2c(c1)OCO2)S(=O)(=O)c1ccc(Br)s1` gave TsaE inh inactive and Bst PK mod inconclusive.
`N#CC1=C(N)Oc2n[nH]c(-c3ccccc3)c2C1c1ccncc1` (stereo not drawn) gave TsaE inh inactive and Bst PK mod >57.
For C=CCn1cnc2c(c1=O)c1nc3ccccc3nc1n2/N=C/c1cccc(OC)c1 the results were TsaE inh inactive.
`c1ccc(-c2ccc(-c3nc(-c4ccncc4)no3)cc2)cc1` gave TsaE inh inactive.

Source: PubChem
